Screening data as filed in PubChem BioAssay.
StopGo reporter – High Throughput Screening for Foot and Mouth Disease Virus Antivirals | Potency, µM (series often up to 57.9 µM), for inactives: at the top dose signal change, negative = less light | human cells with a luciferase reporter of 2A StopGo recoding; control for the full effect not named in the record | 1.2% of 410,000 active; active = well fitted falling curve with a large enough effect; inconclusive = small, poorly fitted or top-dose-only effect; inactive = no such curve, though single readings can be large or run the other way; tested in HEK293T cells; further: on the % scale 0 is the no-effect control and ±100 the full control effect; nearly all actives have a fitted effect of over 45% in size; luciferase light after 4 h
NS1 inh – qHTS Assay for Inhibitors of Influenza NS1 Protein Function. S. cerevisiae slowed by influenza A NS1, growth recovery by OD600. 0.4% of 270,000 active. AID 2326, 2010. Potency, µM (doses to about 46.1 µM), for the others: at the top dose activity, positive = more growth; active means well fitted rising curve with a large enough effect; inconclusive means small, poorly fitted or top-dose-only effect; inactive means no such curve, though single readings can be large or run the other way; further: nearly all actives have a fitted effect of over 50% in size
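Recovery from NS1-induced slow growth read by OD600 in budding yeast switched to galactose assay medium (pH 6.0, -URA) at 1:100 dilution. Compound 23 nl per well; the matching strain lacking NS1 serves as control.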
MARV entry inh – qHTS for inhibitors of binding or entry into cells for Marburg Virus; Marburg virus pseudotyped entry inhibition, cell reporter; control for the full effect not named in the record; about a third of the inactives were read at about 46 µM; Potency, µM (titrated, usually from 37.8 µM), inactives show top-dose activity change, negative = inhibition, hits mostly inhibitors; 1.8% of 300,000 active; AID 540276, 2011; active = well fitted inhibition curve with a large enough effect; inconclusive = small, poorly fitted or top-dose-only effect, or effect the other way; inactive = flat fitted curve, though single readings scatter; tested in HEK293 cells; about a fifth of its hits are not listed in these tables; further: on the % scale 0 is the no-effect control and ±100 the full control effect; luciferase read-out
LASV entry inh – qHTS for Inhibitors of binding or entry into cells for Lassa Virus; Lassa virus pseudotype entry inhibition, cell reporter; control for the full effect not named in the record; 1.2% of 300,000 active; Potency, µM (highest dose often 37.9 µM), for inactives: at the highest dose activity change, negative = inhibition, actives largely listed as inhibitors; AID 540256, 2011; active means well fitted inhibition curve with a large enough effect; inconclusive means small, poorly fitted or top-dose-only effect, or effect the other way; inactive means flat fitted curve, though single readings scatter; tested in HEK293 cells; further: on the % scale 0 is the no-effect control and ±100 the full control effect; nearly all actives have a fitted effect of over 50% in size; luciferase read-out
Cruzain inh Det – qHTS Assay for Promiscuous and Specific Inhibitors of Cruzain (with detergent). Potency, µM, without a hit: max response, negative = inhibition, hits mostly inhibitors. AID 1478, 2009. 0.43% of 200,000 active. purified cruzain, Z-FR-AMC fluorescence, 0.01% Triton;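 further: plate controls were neutral wells for no effect and buffer without enzyme for full effect; nearly all actives have a fitted effect of over 40% in size; top concentration of the series not given in the record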
Target sequence (P25779 123-467 limits assumed): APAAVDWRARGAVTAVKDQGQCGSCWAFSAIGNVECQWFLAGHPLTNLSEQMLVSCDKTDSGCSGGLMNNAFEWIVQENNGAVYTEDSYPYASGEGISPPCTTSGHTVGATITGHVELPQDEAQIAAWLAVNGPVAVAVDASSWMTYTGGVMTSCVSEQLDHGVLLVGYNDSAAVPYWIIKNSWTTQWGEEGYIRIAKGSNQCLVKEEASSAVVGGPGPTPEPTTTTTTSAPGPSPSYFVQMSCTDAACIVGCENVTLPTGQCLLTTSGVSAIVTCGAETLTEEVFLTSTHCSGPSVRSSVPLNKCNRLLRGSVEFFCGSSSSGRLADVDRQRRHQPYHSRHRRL
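15 min RT preincubation of 1.5 nM cruzain with compound, then 2 uM Z-FR-AMC added; kinetic AMC fluorescence, 60 s delta. Triton X-100 0.01%, pH 5.5.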
SARS PLP yeast – qHTS of Yeast-based Assay for SARS-CoV PLP | S. cerevisiae expressing SARS-CoV PLpro, growth rescue; control for the full effect not named in the record | Potency, µM (highest dose often 32.9 µM), without a hit: at the highest dose activity, positive = growth rescue | 0.19% of 330,000 active; active means well fitted rising curve with a large enough effect; inconclusive means small, poorly fitted or top-dose-only effect; inactive means no such curve, though single readings can be large or run the other way; further: 0% is about no effect; nearly all actives have a fitted effect of over 55% in size; growth read by luminescence after 48 h
RE007 growth inh – qHTS Assay for Inhibitors of the HIV-1 protein Vpr | Potency, µM (top dose mostly 92.2 µM), inactives show at the top dose activity change, negative = less growth | 0.21% of 360,000 active | S. pombe RE007 Vpr strain, BacTiter-Glo ATP luminescence, 24 h; control for the full effect not named in the record; active = well fitted falling curve with a large enough effect; inconclusive = small, poorly fitted or top-dose-only effect; inactive = no such curve, though single readings can be large or run the other way;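 further: on the % scale 0 is the no-effect control and ±100 the full control effect; nearly all actives have a fitted effect of over 50% in size; the assay follows cell death caused by Vpr and the record does not say whether a fall means rescue or toxicity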
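Fission yeast strain RE007, carrying one chromosomally integrated HIV-1 vpr copy, was seeded at OD 0.01 in PMG+AL medium with 23 nL pinned compound. After 24 h at 30 °C and 99% humidity, viability was read by BacTiter-Glo luminescence.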
Cruzain noTriton – qHTS Assay for Promiscuous and Specific Inhibitors of Cruzain (without detergent) | purified cruzain, Z-FR-AMC fluorescence, no detergent | 2.3% of 200,000 active | Cruzipain (Trypanosoma cruzi), P25779 | Potency, µM, without a hit: max response, negative = inhibition, actives largely listed as inhibitors;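 further: plate controls were enzyme without inhibitor for no effect and buffer without enzyme for full effect; nearly all actives have a fitted effect of over 40% in size; top concentration of the series not given in the record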
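Purified cruzain at 1.5 nM, pre-incubated 15 min with compound at room temperature in 100 mM sodium acetate pH 5.5, 5 mM DTT, 0.00005% Triton X-100. Reaction started with 2 uM Z-FR-AMC; AMC fluorescence increase over 60 s gives rate.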
Active calls of the source: *; ? = inconclusive; nt = no result given; & = joins results of further samples; [ ] = another dose, or the depositor's remark. Unless noted, the call rests on the fitted dose curve; in most records, active means well fitted curve in the direction sought with a large enough effect; inconclusive means small, poorly fitted or top-dose-only effect, or another doubt; inactive means no such curve, though single readings can be large; an effect the other way counts as inactive or inconclusive. Potency means the concentration at half of the fitted maximal effect. Outcome played no part in choosing rows; any-hit rate near 4.7%.

SMILES | StopGo reporter | NS1 inh | MARV entry inh | LASV entry inh | Cruzain inh Det | SARS PLP yeast | RE007 growth inh | Cruzain noTriton
O=C(COC(=O)C1CCN(S(=O)(=O)c2ccc3c(c2)OCCO3)CC1)Nc1ccccc1OC(F)F | -19.9% | 4.6% | ? | 0.1% | -5.1% | -4.2% | -7.3% | 16.0%
Cc1nn(C2CCS(=O)(=O)C2)c2nc(C3CC3)cc(C(=O)Nc3cccc(C#N)c3)c12 (stereo unspecified) | -22.1% | nt | -22.2%[46.1 µM] | -25.8% | nt | 4.8% | -4.5% | nt
CCOc1ccc(NS(=O)(=O)c2cc3c(cc2Cl)NC(=O)CO3)cc1 | -5.2% | nt | nt | ? | -3.5% | nt | nt | 2.8%
CC(=O)Nc1cccc(NC(=O)CN2c3cccc4cccc(c34)S2(=O)=O)c1 | -31.7% | nt | -18.9% | -24.0% | nt | 0.6% | 11.3% | nt
Cc1ccc(C(=O)NC(=S)Nc2ccc3[nH]c(=O)[nH]c3c2)cc1C | -16.7% | -2.7% | 1.8% | 18.8% | -1.7% | 9.6% | 2.9% | ?
C[C@@H](C(=O)Nc1ccc(OC(F)F)c(Cl)c1)N1C(=O)C2CC=CCC2C1=O (stereo partly specified) | ? | nt | -2.0%[46.1 µM] | -2.1%[46.1 µM] | nt | 16.1% | 7.1% | nt
CCCN1CCN(CCCNC(=O)Cn2nc(C)n3c(cc4c(OC)cccc43)c2=O)CC1 | -12.1% | nt | -1.3%[46.1 µM] | nt | 2.6% | nt | nt | -10.6%
CCOc1cc(/C=N/NC(=O)C2CCCC2)ccc1OC(C)C | -19.3% | -13.7% | -18.3%[46.1 µM] | ? | nt | -2.9% | -9.1% | nt
Cc1nc2nc(C)c(NS(=O)(=O)c3ccc(C(C)(C)C)cc3)c(=O)n2[nH]1 | -4.6% | 4.0% | 1.2%[46.1 µM] | -2.2% | nt | 1.3% | -2.0% | nt
COc1ccc(OC)c(-c2cc(C(=O)N3CCCc4ccccc43)no2)c1 | 30.0%[activator] | -47.3% | -23.1% | -19.6% | -8.6% | -3.2% | 12.6% | 7.4%
Cc1ccc(CNC(=S)NCc2ccncc2)cc1 | -14.4% | 3.8% | 4.2%[14.2 µM] | ? | nt | -0.5% | 5.6% | nt
O=C(O)CCN1CCc2ccccc2C1c1ccncc1 (stereo unspecified) | -5.7% | -4.7% | nt | nt | nt | 2.6% | -2.5% | nt
CN(C)C(Cc1ccccc1)C(=O)c1c[nH]c2ccccc12 (stereo unspecified) | 17.3% | 3.8% | nt | nt | nt | 0.7% | -6.7% | nt
C=CCc1ccccc1Oc1cc(F)nc(N)n1 | -13.6% | -22.8% | -3.6%[46.1 µM] | 5.9%[46.1 µM] | nt | -2.1% | 12.9% | nt
CC(C)c1ccc(NC(=O)C2CCN(C(=O)[C@@H]3Cc4ccccc4CN3)CC2)cc1 | 3.0% | -8.3% | nt | nt | nt | 1.5% | 7.6% | nt
COc1ccc(C(=O)Nc2nnc(SCC(=O)NCC3CCCO3)s2)cc1OC (stereo unspecified) | 5.0% | 5.2% | 1.5% | -5.2% | nt | 0.7% | -13.3% | nt
CC1CN(C)C(C)C/C1=N\Oc1ccc([N+](=O)[O-])cc1 (stereo unspecified) | -6.6% | -0.8% | -17.4% | 12.4% | nt | -1.2% | -11.1% | nt
Cc1cc(Br)ccc1OCC(=O)N1CCCCCC1 | -0.5% | -2.5% | ? | 3.2% | 4.4% | 2.5% | -20.6% | 4.5%
O=C(CN1CCCCC1)N/N=C/c1ccccc1OCc1ccccc1 | 14.9% | -15.1% | -3.8% | 13.3% | -3.8% | -13.4% | -10.8% | 10.5%
COC(=O)c1[nH]c2cc(C)ccc2c1NC(=O)CN1CCN(c2ccccc2OC)CC1 | ? | -11.7% | ? | ? | -2.5% | -10.9% | -0.1% | 10.8%
COc1ccc(CN(C)C(=O)c2cccc(NC(=O)CC3SC(N4CCCCC4)=NC3=O)c2)c(OC)c1 (stereo unspecified) | 20µM* | nt | 10µM* | 7.08µM* | nt | nt | -9.8% | nt
Cc1ccc(-c2cc(N)n(Cc3cccc(Cl)c3)n2)cc1 | -15.6% | nt | -14.8%[46.1 µM] | -1.3%[46.1 µM] | -13.1% | nt | nt | -25.7%
COc1ccc(CN2CCN(Cc3cc(=O)oc4cc(C)ccc34)CC2)c(OC)c1OC | -2.2%&-13.7% | 0.4% | 14.1µM* | -21.6%&-6.8%[46.1 µM] | 1.8% | -3.0% | -19.3% | 3.2%
CCN(CC(=O)NCc1ccc(F)cc1)C(=O)C1CCN(S(=O)(=O)c2ccc(C(C)C)cc2)CC1 | -4.8% | nt | -23.6% | 0.1% | nt | -2.9% | -24.3% | nt

Shown with values under each structure: part of the list above
Each structure is followed by: StopGo reporter	NS1 inh	MARV entry inh	LASV entry inh	Cruzain inh Det	SARS PLP yeast	RE007 growth inh	Cruzain noTriton
- Cc1nn(C2CCS(=O)(=O)C2)c2nc(C3CC3)cc(C(=O)Nc3cccc(C#N)c3)c12 (stereo unspecified)
 : -22.1%	nt	-22.2%[46.1 µM]	-25.8%	nt	4.8%	-4.5%	nt
- CC(=O)Nc1cccc(NC(=O)CN2c3cccc4cccc(c34)S2(=O)=O)c1
 : -31.7%	nt	-18.9%	-24.0%	nt	0.6%	11.3%	nt
- Cc1ccc(CNC(=S)NCc2ccncc2)cc1
 : -14.4%	3.8%	4.2%[14.2 µM]	?	nt	-0.5%	5.6%	nt
- C=CCc1ccccc1Oc1cc(F)nc(N)n1
 : -13.6%	-22.8%	-3.6%[46.1 µM]	5.9%[46.1 µM]	nt	-2.1%	12.9%	nt
- O=C(CN1CCCCC1)N/N=C/c1ccccc1OCc1ccccc1
 : 14.9%	-15.1%	-3.8%	13.3%	-3.8%	-13.4%	-10.8%	10.5%

(further entries)
SMILES | StopGo reporter | NS1 inh | MARV entry inh | LASV entry inh | Cruzain inh Det | SARS PLP yeast | RE007 growth inh | Cruzain noTriton
CC(C)c1ccc(NC2CCCN(C(=O)c3ccoc3)C2)cc1 (stereo unspecified) | -5.6% | -5.9% | nt | nt | nt | -4.7% | 7.1% | nt
COC(=O)Cc1cc(=O)[nH]c(/N=C(\N)Nc2cccc(C)c2)n1 | -0.6% | 5.8% | 6.4%[46.1 µM] | -13.0% | nt | -0.1% | -13.7% | nt
CCc1cc(C)c(O)c(CC)n1 | -14.4% | -4.5% | 9.2% | 4.4% | 6.1% | 2.3% | 0.9% | -3.3%
COc1cc(C#N)c(NS(=O)(=O)c2ccc3[nH]c(=O)sc3c2)cc1OC | -0.2% | -5.8% | 14.9%[46.1 µM] | 3.6%[46.1 µM] | nt | 0.4% | -2.5% | nt
CCOc1ccccc1OCCCC(=O)N1CCN(S(=O)(=O)c2ccc(C)cc2)CC1 | ? | -15.1% | ? | -32.0% | -8.0% | 0.0% | -3.0% | ?
CCOC(=O)C1=C(O)/C(=C/c2ccc(OCC(=O)O)c(OCC)c2)SC1=Nc1ccc(OC)cc1 | -4.6% | 14.6% | -8.9% | -11.5% | -12.6% | 21.1% | -9.1% | ?
CCN(CC)c1ccc(C2C3CCCCC3(O)CCN2CC(=O)N2CCCCC2)cc1 (stereo unspecified) | 0.0% | 2.0% | ? | -19.7% | 1.6% | 6.3% | -19.4% | 3.3%
CCOc1ncccc1-c1nc(-c2cccs2)no1 | 17.8% | 5.2% | nt | nt | nt | -0.9% | -15.9% | nt
CC(=O)Nc1ccc(NC(=O)CN(C)S(=O)(=O)c2ccc3c(c2)CCC(=O)N3)cc1 | -9.7% | 5.1% | nt | nt | nt | -4.1% | 10.8% | nt
CCc1nnc(NC(=O)CSc2nnc(-c3cccnc3)n2C)s1 | 4.4% | nt | 7.3%[46.1 µM] | -4.2% | nt | -1.8% | 9.5% | nt
Cc1ccc(P(=O)(CSC(=N)N)c2ccc(C)cc2)cc1 | -28.7% | -2.1% | ? | ? | -5.3% | 6.9% | -10.5% | 1.4%
NC(=O)c1ccsc1NC(=O)COC(=O)COc1ccccc1F | -17.5% | 9.7% | ? | -0.9% | -4.1% | 0.3% | 6.2% | 7.9%
CC(C)C(=O)c1cn(CC(=O)N2CCCc3ccccc32)c2ccccc12 | -2.8% | -7.4% | -1.0% | -0.2% | -7.0% | 3.2% | -16.1% | -5.7%
Cc1cc(Nc2nc3ccccc3[nH]c2=O)n(-c2ccccc2)n1 | -5.0% | 3.8% | ? | ? | 6.0% | 1.1% | -16.2% | 19.4%
O=C(Nc1ccccc1)C12CC3CC(C1)CC(n1cnc([N+](=O)[O-])n1)(C3)C2 | -1.6% | 16.0% | -9.7% | 6.2% | 1.7% | -6.1% | 1.2% | -3.8%
Cc1onc(-c2ccccc2)c1CNS(=O)(=O)c1cccc(Br)c1 | 19.2% | 0.0% | ? | -10.1% | nt | 0.7% | 12.5% | nt
O=C(NC(Nc1nc2ccccc2s1)(C(F)(F)F)C(F)(F)F)c1ccccc1 | 19.1% | 26.0% | 7.6% | -13.6% | -3.1% | -1.1% | 8.8% | 2.7%
COc1ccccc1NS(=O)(=O)c1cc(NC(=O)CCNC(C)=O)ccc1C | 34.6%[activator] | nt | 1.4%[46.1 µM] | 4.8% | nt | 1.5% | -14.4% | nt
CC1CN(C(=O)c2ccc(S(=O)(=O)Nc3cccc(C(F)(F)F)c3)cc2)CC(C)O1 (stereo unspecified) | -20.0% | nt | -19.3% | ? | nt | 7.9% | 11.1% | nt
CCOc1ccc(OCCCCn2cnc3ccccc3c2=O)cc1 | -20.9% | -9.6% | 4.9%[46.1 µM] | -8.0%[46.1 µM] | nt | 0.5% | 9.9% | nt
O=CN1CCc2scc[n+]2-c2ccccc21 | -0.8% | -1.0% | 14.2% | 0.2% | -6.2% | -23.0% | -6.9% | -8.0%
